Screening results (PubChem BioAssay)
CSC inhib – cancer stem cell inhibition. inhibition, % at 7.5 µM. cancer stem cell-like cells viability, luminescence. 1.1% of 300,000 active;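 active = mean at 75% or more and at least half the replicates too; inconclusive = mean and replicates disagree; tested in HMLE shEcad cells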;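 also: 0% = median of negative and 100% = median of positive control wells; the first replicate is given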
Yeast UUG start – alters start codon recognition fidelity in yeast | S. cerevisiae UUG-firefly luciferase reporter, luminescence/redox ratio | activity score, % at 18.7 µM | 0.13% of 350,000 active;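 active = replicate mean at a twofold rise or more, about +100% in these data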;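 also: firefly luciferase made from a UUG start codon reports start codon fidelity; reporter light over untreated wells divided by growth signal over untreated wells; some hits fall short of that in this replicate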
Rce1 inhib – inhibitors of yeast Ras-converting enzyme; Q03530; 0.27% of 290,000 active; calls only; yeast membranes, quenched prenylated peptide cleavage fluorescence;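 active = fall in fluorescence gain of 50% or more versus controls, with final raw signal at or below 3038400; inconclusive = same 50% fall but final raw signal above 3038400; inactive = fall in fluorescence gain under 50%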;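 also: plate controls were neutral control wells for no effect and wells lacking membranes for full effect; tested at 10 µM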
Target sequence (Q03530 whole entry, looked up): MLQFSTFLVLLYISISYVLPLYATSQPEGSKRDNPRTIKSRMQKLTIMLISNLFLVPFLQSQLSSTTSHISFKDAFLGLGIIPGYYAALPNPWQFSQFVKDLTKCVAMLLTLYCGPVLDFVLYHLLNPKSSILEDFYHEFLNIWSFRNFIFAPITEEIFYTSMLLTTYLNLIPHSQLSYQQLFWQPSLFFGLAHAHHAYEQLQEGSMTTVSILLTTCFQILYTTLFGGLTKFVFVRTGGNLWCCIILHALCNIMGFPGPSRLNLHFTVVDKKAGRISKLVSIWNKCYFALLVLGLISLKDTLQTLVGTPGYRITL
MT1-MMP act inh – inhibitors of human MT1-MMP activation; P50281; HT1080 RFP-PRO-GFP cells, GFP/RFP ratio fluorescence, overnight; percent of plate control window, DMSO zero; GFP/RFP ratio change, % at 20 µM; 0.061% of 360,000 active; AID 651647;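 active = GFP/RFP ratio change of at least 30% with cell ATP level not reduced by more than half and red fluorescence within 50% of control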; also: strong numbers were not always called active
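system = RFP-PRO-GFP reporter HT1080 cells | dosing = 20 µM single dose, 1% DMSO | timing = overnight cell settling, then overnight compound exposure, 37 °C, 5% CO2 | read-out basis = GFP/RFP fluorescence ratio | controls = DMSO and RFP-L50D-GFP cell wells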
PABP FP inh – blocks human PABP binding to poly(A) RNA; P11940; fluorescence polarization; inhibition, % at 35 µM; 1% of 290,000 active; AID 2014;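 active = 50% or more with normal probe brightness, or confirmed in later tests; inconclusive = above 50% with abnormal brightness, or retests that disagree; inactive = below 50% or failed in later tests; about a fifth of its hits are not listed in these tables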;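 also: calls also rest on retests at 20 µM and on dose response follow-up; controls were probe without protein and protein plus probe with vehicle; some compounds called inactive have numbers as strong as hits; many hits fall short of the cut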
eIF4H inh – inhibitors of RNA binding by human eIF4H; Q15056; 0.94% of 290,000 active; AID 2012; eIF4H fluorescence polarization binding assay; inhibition, % at 35 µM;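 active = 50% or more with normal probe brightness, or confirmed in later tests; inconclusive = above 50% with abnormal brightness, or retests that disagree; inactive = below 50% or failed in later tests; about a fifth of its hits are not listed in these tables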;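 also: calls also rest on retests at 20 µM and on dose response follow-up; 0% = protein and probe with vehicle and 100% = probe without protein; strong numbers were not always called active; many hits fall short of the cut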
HIV Env fusion – HIV envelope-mediated fusion inhibition; HeLa-JRFL Env/CEM21 cell fusion, luciferase; inhibition, % at 12.3 µM; 1.1% of 360,000 active; AID 651610;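 active = mean replicate inhibition score of at least 50 and every replicate individually at or above 50; inconclusive = only one of the two criteria met; inactive = mean below 50 and not all replicates reaching 50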;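 also: 0% = plate neutral controls and 100% = maraviroc near 300 nM; one replicate is shown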
eIF4H inh retest – also measured in eIF4H inh; calls as there; inhibition, %; compound at 20 µM; confirmation average;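 mean of two retest wells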
PABP FP inh retest – further read-out of PABP FP inh, marked with its call; inhibition, %; compound at 20 µM; confirmation repeats;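 mean of two retest wells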
MT1-MMP act inh RFP – recorded beside MT1-MMP act inh, whose call it bears; RFP signal change, %; measured here: RFP expression control read;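 0 = vehicle wells; hits needed this value within 50% of zero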
* hit, by the source's call; i = inactive; ? = inconclusive; · = not tested or not shown.

SMILES | CSC inhib | Yeast UUG start | Rce1 inhib | MT1-MMP act inh | MT1-MMP act inh RFP | PABP FP inh | eIF4H inh | HIV Env fusion | others
CC(OC(=O)c1cc[n+]([O-])cc1)C(=O)Nc1ccc(C(N)=O)cc1 (stereo unspecified) | 0 | -8 | · | -3 | 2 | · | · | -15
O=C(CN1C(=O)c2ccccc2C1=O)Nc1ccc(N2CCOCC2)cc1 | -8 | -21 | i | 2 | 7 | -9 | -7 | -61
COc1cc(OC)cc(C(=O)NCC(=O)N2CCN(Cc3ccccc3)CC2)c1 | -1 | -5 | · | 5 | 3 | · | · | ·
Cc1cc(Cl)ccc1OCc1nnc2n1CCCCC2 | 12 | · | i | -1 | -3 | 14 | 2 | -21
Cc1cc(-c2nnc3n2CCCCC3)c(C)n1-c1ccccc1 | -3 | -9 | i | 1 | -2 | 5 | 11 | ·
COc1ccc(Cl)cc1NC(=O)COC(=O)CNC(=O)c1ccc([N+](=O)[O-])c(C)c1 | -3 | -10 | i | 1 | 4 | 3 | -4 | 16
CCCn1c(=O)c(C(=O)Nc2ccccc2C)c(O)c2ccccc21 | 13 | -15 | i | 2 | 4 | -5 | 0 | -25
Cc1ccccc1NC(=O)Nc1ccc2c(c1)OCO2 | 16 | -19 | i | -3 | -1 | -10 | -6 | -59
COc1ccc(OC)c(-c2csc(-c3cccs3)n2)c1 | 32 | -13 | i | -12 | -3 | 7 | -7 | -68
Cc1ccc(-c2[nH]c(-c3ccc(C(=O)O)cc3)nc2-c2ccccc2)cc1 | 7 | · | ? | 0 | -1 | -2 | -1 | 5
COc1ccc(CCn2c(N)c(S(=O)(=O)c3cccs3)c3nc4ccccc4nc32)cc1OC | -4 | -21 | i | 1 | -1 | 5 | 3 | ·
COc1ccc2c(c1)c(=O)c(C(=O)c1ccccc1)cn2Cc1ccc(C)cc1 | 33 | -6 | i | -6 | -5 | 1 | -8 | -71
CCOc1ccccc1C(=O)NCC(=O)NCc1ccc(S(=O)(=O)N2CCOCC2)cc1 | 0 | -7 | · | -2 | 1 | · | · | ·
N#C/C(=C\c1cn(Cc2ccccc2)c2ccccc12)C(=O)NCc1ccco1 | 32 | · | i | 0 | -5 | 20 | -10 | 15
O=C(Nc1ccc(-c2csc(Nc3cccc(C(F)(F)F)c3)n2)cc1)c1cc([N+](=O)[O-])cc(C(F)(F)F)c1 | 88* | 10 | i | 3 | -3 | 11 | 8 | 1
COc1ccc(-n2c(C)c(C)c3c(NCCCO)ncnc32)cc1 | -6 | -6 | i | 0 | 2 | 9 | 0 | 2
Cc1ccc(C(=O)NC2CCC(C)CC2)s1 (stereo unspecified) | -2 | · | i | -1 | 3 | · | · | -107
Cc1ccc(-c2nnnn2-c2ccc(C)cc2)cc1 | -5 | · | i | -1 | 1 | 3 | 1 | 14
O=C(O)Cn1nnc(COc2ccccc2)n1 | 15 | -12 | · | -3 | -2 | -5 | -4 | -20
Cc1ccc(Nc2nc3ccccc3nc2Nc2c(C)n(C)n(-c3ccccc3)c2=O)cc1 | 56 | · | · | -12 | -11 | -6 | -8 | 4
Cc1ccc(OCCN(C)C(=O)C2CCC(=O)N(CCCN3CCOCC3)C2)cc1 (stereo unspecified) | 6 | -10 | i | 2 | 2 | -1 | 12 | -138
COc1cc(-c2[nH]ncc2CN2CCN(c3cccc(C)n3)CC2)cc(OC)c1OC | 1 | 0 | i | -1 | -7 | -8 | 6 | 14
O=[N+]([O-])c1cccc(Nc2c3ccccc3nc3ccccc23)c1 | -7 | · | i | 6 | -9 | 7 | 6 | -2
C=CCOc1ccc2c3c(c(=O)oc2c1)CCCC3 | · | -14 | · | -5 | -2 | · | · | -17
O=C(/C=C/c1ccc([N+](=O)[O-])s1)N1CCCCC1 | 0 | · | i | -4 | -8 | -8 | 6 | -25
O=C1S/C(=C/c2ccc(N3CCOCC3)o2)C(=O)N1Cc1ccc(F)cc1 | 10 | -23 | i | -248 | 2 | 18 | 8 | 4
COc1ccc2c(c1OC)C(=O)N1c3ccccc3C(=O)N(c3ccccc3F)C21 (stereo unspecified) | 12 | -15 | i | -13 | -7 | 5 | 8 | ·
CCSc1nnc(NC(=O)Cc2ccc(OC)c(OC)c2)s1 | -1 | · | i | -1 | 0 | -7 | -12 | ·
CCOC(=O)c1c(/N=C/N(C)C)sc(/C=N/Nc2ccccc2)c1-c1ccccc1Cl | 42 | -9 | i | -12 | -8 | 95* | -9 | 3 | eIF4H inh retest=47;PABP FP inh retest=85*
C=CCNC(=O)N1CCCC(N2CCN(c3ccccc3OC)CC2)C1 (stereo unspecified) | -4 | -21 | i | 3 | 5 | 2 | -4 | -3
O=C(N/N=C/c1ccc(Sc2nc3ccccc3[nH]2)o1)c1ccncc1 | -15 | -11 | i | 1 | 1 | -6 | -6 | 28
N#CC(c1ccc(F)cc1)c1ccc(C(=O)c2ccccc2)cc1 (stereo unspecified) | 8 | -13 | i | 0 | -15 | 4 | -6 | ·
CC1(C(=O)NS(=O)(=O)c2ccc(C#N)cc2)CCN1C(=O)Cc1ccc(Cl)cc1Cl (stereo unspecified) | · | -5 | · | 1 | 3 | · | · | 15
COc1cccc(OCCCCCCN2CCOCC2)c1 | -4 | -1 | i | 5 | 4 | -4 | 3 | ·
CCOc1ccc(N2C(=O)C3=C(C(c4ccc(Cl)cc4)=NCCN3)C2c2cccnc2)cc1 (stereo unspecified) | 11 | · | i | -4 | 1 | -8 | -12 | -2
CS(=O)(=O)c1ccccc1-c1nc(-c2ccc([N+](=O)[O-])cc2)no1 | -10 | · | i | 1 | 1 | 0 | -2 | 5
NNc1nc(C(F)(F)F)nc2ccccc12 | 4 | · | i | -5 | -4 | -7 | -4 | 9
CN(C)CCCNc1oc(/C=C/c2cccs2)nc1S(=O)(=O)c1ccccc1 | 5 | -13 | i | -1 | 7 | 7 | 6 | 3
COc1ccc(CNC(=O)C/C(C)=N/NC(=O)c2cc(OC)cc(OC)c2)cc1 | -3 | · | i | · | · | 14 | -7 | ·
CC(C)N(Cc1cnn(C)c1)C(=O)C1CCC(=O)N(CCc2cccc(F)c2)C1 (stereo unspecified) | -6 | -8 | i | 0 | 4 | -12 | 0 | -15

3 structures from above, sorted by length of the SMILES, smallest number first.
SMILES | CSC inhib | Yeast UUG start | Rce1 inhib | MT1-MMP act inh | MT1-MMP act inh RFP | PABP FP inh | eIF4H inh | HIV Env fusion | others
CN(C)CCCNc1oc(/C=C/c2cccs2)nc1S(=O)(=O)c1ccccc1 | 5 | -13 | i | -1 | 7 | 7 | 6 | 3
CS(=O)(=O)c1ccccc1-c1nc(-c2ccc([N+](=O)[O-])cc2)no1 | -10 | · | i | 1 | 1 | 0 | -2 | 5
CC1(C(=O)NS(=O)(=O)c2ccc(C#N)cc2)CCN1C(=O)Cc1ccc(Cl)cc1Cl (stereo unspecified) | · | -5 | · | 1 | 3 | · | · | 15

Next compounds.
SMILES | CSC inhib | Yeast UUG start | Rce1 inhib | MT1-MMP act inh | MT1-MMP act inh RFP | PABP FP inh | eIF4H inh | HIV Env fusion | others
COc1ccc(OC)c(C2CC(=O)Nc3n[nH]c(-c4ccccc4)c32)c1 (stereo unspecified) | -12 | · | i | 2 | 2 | -7 | 10 | 16
CCCCCCCCCCCCCCCC(=O)NCCc1c[nH]c2ccccc12 | -1 | -5 | i | -2 | -7 | -8 | -4 | ·
C[C@H]1CN=C(Nc2ccccc2)N1CC1CCC1 | -12 | -16 | i | 1 | 4 | 2 | -1 | 6
Cc1cccc(NC(=O)CCC(=O)N/N=C/c2ccco2)c1 | -11 | · | i | -1 | 3 | -6 | 5 | 20
COc1ccc(CN(CC2CCC(C(=O)O)CC2)C(=S)Nc2cc(C)ccc2C)cc1 (stereo unspecified) | · | · | · | 1 | 3 | -4 | -2 | -2
CCOC(=O)C1(Cc2ccccc2C)CCCN(C(=O)COC)C1 (stereo unspecified) | -9 | -11 | i | 0 | -1 | -11 | 9 | -15
COc1ccc2[nH]c3c(c2c1)CCNC3c1ccc([N+](=O)[O-])o1 (stereo unspecified) | 21 | -3 | i | -30 | 8 | 23 | 16 | 10
COc1cccc(CNC(=O)CCC2CCCN(C(=O)C3CCOCC3)C2)c1 (stereo unspecified) | -3 | -28 | i | 1 | 7 | -4 | 4 | 1
Cc1ccc(NCC(=O)N/N=C/c2c[nH]c3ccccc23)cc1 | 1 | · | i | -1 | -4 | 1 | -16 | -9
O=C(CSc1nnc(-c2ccc(F)cc2)o1)Nc1ccc(S(=O)(=O)N2CCCC2)cc1 | 0 | -34 | i | 4 | 3 | 3 | -7 | ·
Cc1cccc(NS(=O)(=O)c2cc([N+](=O)[O-])ccc2C)n1 | 0 | · | i | 0 | 0 | -4 | -5 | -18
O=C(CSc1nc(=O)n2ccccc2n1)NCc1ccccc1 | -4 | -12 | i | 5 | 0 | · | · | 1
CCOC(=O)C(=O)Nc1ccc(S(=O)(=O)Nc2ncccn2)cc1 | -3 | -16 | i | 1 | 5 | -6 | -3 | -4
CSc1ccccc1NC(=O)NCCCl | 18 | -1 | i | -3 | -4 | 7 | 8 | -7
COc1ccc2sc(-c3ccccc3OC)c(-c3ccc(OC)nc3)c2c1 | 17 | 1 | · | -3 | 1 | · | · | -22
CC(=Nc1ccccc1)C1=C(O)C(Cc2ccc(F)cc2)NC1=O (stereo unspecified) | · | -11 | · | 1 | -10 | · | · | -295
Cc1ccc(C(=O)Nc2ccc(C(=O)N3CCCCC3)cc2)o1 | 24 | -21 | i | 2 | 2 | 11 | 3 | -7
Cc1cc(C)nc(SCC(=O)Nc2ccc(S(=O)(=O)N3CCCCC3)cc2)n1 | -5 | -9 | i | 3 | 2 | -5 | -3 | -14
CCN1C(=O)[C@@H]2[C@@H](c3ccc(SC4CCCCC4)cc3)N3CCCC[C@@]3(C(=O)OC)[C@@H]2C1=O | 26 | -5 | i | -17 | -1 | · | · | -9
COc1ccc(CNC(=S)NNC(=O)c2cc3ccccc3o2)cc1 | -18 | · | i | 1 | 0 | -8 | 11 | -13
CC(=O)c1cc(N2CCOCC2)ccc1[N+](=O)[O-] | · | · | i | 4 | -2 | -12 | -8 | 11
CCOC(=O)c1cnc2cc(-c3ccc(Cl)cc3)nn2c1N | 13 | -7 | i | -5 | -2 | -6 | -10 | ·
C=CCNC(=O)CC(C)C(CCCCC)C(=O)O (stereo unspecified) | -4 | -4 | i | 2 | 3 | -4 | -5 | ·
COc1cccc(N2CCN(S(=O)(=O)c3ccc4c(c3)CC(C)N4C(=O)C3CC3)CC2)c1 (stereo unspecified) | 6 | 5 | i | -4 | -4 | · | · | 1
COC(=O)Nc1c(-c2ccccc2)nc2ccc(Cl)cn12 | -8 | -11 | i | 1 | 0 | 6 | 10 | -3
CN(c1ccccc1)c1ccc(/C=C/[N+](=O)[O-])cc1 | -1 | · | i | -14 | -18 | -1 | 47 | -214
C[C@]12C(=O)N(c3ccccc3)C(=O)N1[C@H]1c3ccccc3OC[C@@H]1[C@H]2c1ccccc1 | 1 | -14 | · | 3 | -6 | · | · | -166
CC(=O)c1ccc(Nc2ncnc3ccc(Br)cc23)cc1 | · | -25 | · | -17 | -10 | · | · | 35
Cc1nc(Nc2ccccc2C)c2cnn(C)c2n1 | · | -5 | · | -1 | 4 | · | · | -8
CCc1noc(C)c1C(=O)Nc1ccc(-c2nnc3n2CCCCC3)cc1 | 4 | -6 | · | 1 | -3 | · | · | 15
COc1ccccc1-c1cc(C(=O)NCc2ccccc2)no1 | 10 | -9 | i | 5 | 3 | -4 | 2 | -37
